Screening results: PubChem, several laboratories
A1 inh: inhibitors of the anti-apoptotic protein A1, read as caspase activation; actives 0.066% (n = 330,000); caspase activation, % (test concentration not listed); MEF A1-2A-BIM cells, Caspase-Glo 3/7 luminescence, 3 h; percent of clofoctol response, vehicle zero;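 active means over half of replicate activation scores above 10%, or exactly half above 10 with the replicate mean above 10; inconclusive means replicate mean below 10 yet half the replicates above 10; inactive means over half of replicates below 10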;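 further: wells of about 30 µL received 50 nL stock; many hits fall short of the cut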
LANA-H2B inh: blocks KSHV LANA binding to histone H2A/H2B | Q9QR71 | cell-free LANA-H2A/H2B peptide, fluorescence polarization | inhibition, % (concentration not given with the values) | actives 0.6% (n = 320,000) | AID 2629; in the data active means inhibition mostly above about 10%, no sharp cut-off; inactive means mostly below about 6.7%;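 further: stock transfer was 7.5 nL into about 10 µL; 0% = median of vehicle wells and 100% = median of positive control wells; one replicate is shown; the record names a cut of 25% in any replicate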
Target sequence (Q9QR71 whole entry, looked up): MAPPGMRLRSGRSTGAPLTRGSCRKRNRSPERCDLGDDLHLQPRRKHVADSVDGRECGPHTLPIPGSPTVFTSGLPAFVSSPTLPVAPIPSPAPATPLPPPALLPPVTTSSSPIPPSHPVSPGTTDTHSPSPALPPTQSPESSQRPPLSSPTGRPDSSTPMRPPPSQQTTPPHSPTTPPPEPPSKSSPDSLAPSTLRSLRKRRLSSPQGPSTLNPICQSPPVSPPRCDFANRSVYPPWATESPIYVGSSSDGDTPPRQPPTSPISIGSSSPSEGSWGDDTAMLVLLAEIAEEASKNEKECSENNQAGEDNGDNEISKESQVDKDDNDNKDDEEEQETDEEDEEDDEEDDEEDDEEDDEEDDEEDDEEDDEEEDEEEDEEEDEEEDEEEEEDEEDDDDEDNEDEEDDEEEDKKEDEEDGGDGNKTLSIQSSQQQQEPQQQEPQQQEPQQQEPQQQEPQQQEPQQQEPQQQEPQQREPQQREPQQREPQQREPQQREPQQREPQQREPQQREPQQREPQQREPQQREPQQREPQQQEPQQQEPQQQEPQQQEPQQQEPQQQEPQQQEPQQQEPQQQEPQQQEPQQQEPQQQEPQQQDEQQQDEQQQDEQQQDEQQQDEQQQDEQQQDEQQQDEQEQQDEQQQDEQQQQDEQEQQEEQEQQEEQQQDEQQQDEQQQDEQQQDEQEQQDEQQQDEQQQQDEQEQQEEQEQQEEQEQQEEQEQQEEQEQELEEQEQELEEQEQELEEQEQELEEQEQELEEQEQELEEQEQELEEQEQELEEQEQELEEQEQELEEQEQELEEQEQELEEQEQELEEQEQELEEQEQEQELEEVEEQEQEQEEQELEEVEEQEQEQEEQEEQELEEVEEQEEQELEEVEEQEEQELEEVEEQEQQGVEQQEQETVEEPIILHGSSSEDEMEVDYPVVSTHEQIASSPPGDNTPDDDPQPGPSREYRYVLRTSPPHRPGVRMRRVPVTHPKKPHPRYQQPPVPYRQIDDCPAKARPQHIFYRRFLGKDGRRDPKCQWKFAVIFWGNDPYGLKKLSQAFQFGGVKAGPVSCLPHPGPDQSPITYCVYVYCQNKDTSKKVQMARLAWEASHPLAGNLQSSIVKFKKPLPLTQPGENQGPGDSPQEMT
RanGTP-Imp inh: disruptors of Ran-importin-beta complex formation – biochemical, FRET, CFP-Ran, YFP-importin-beta, homogeneous, primary screen; inhibition, % (no concentration beside the values); cell-free CFP-Ran/YFP-importin-beta FRET ratio; actives 1.1% (n = 300,000);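 active means most replicates above 15%; inconclusive means exactly half above 15%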;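 further: 0% = DMSO wells and 100% = Ran loaded with GDP instead of GTP; wells of about 40 µL received 100 nL stock; the first replicate is given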
Calb FLC: affects C. albicans growth with fluconazole. C. albicans CaCi-2 (fluconazole-resistant clinical isolate) + fluconazole, Alamar Blue growth, 48 h. growth inhibition, % (no concentration beside the values). actives 0.57% (n = 300,000). AID 1979;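 active means most replicates above 75%; inconclusive means exactly half above 75%; inactive means most below 75%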;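 further: all wells also contain fluconazole at 8 µg/ml as a sub-toxic cotreatment; 0% = median of DMSO wells and 100% = median of geldanamycin control wells; wells of about 8 µL received 7.5 nL stock; the first replicate is given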
Beta apoptosis: beta cell apoptosis inhibition. INS-1E cytokine-induced death, ATP luminescence, 48 h; percent of positive-control rescue, neutral wells zero. protection from apoptosis, % (no concentration beside the values). actives 0.8% (n = 300,000). AID 435005;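 active means all replicates at 75% or more, or half of them and the mean; inconclusive means half reach 75% but not the mean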;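 further: 0% = cytokine-treated negative control wells and 100% = positive control rescue; higher means more ATP so stronger rescue from cytokine killing; wells of about 40 µL received 100 nL stock; the first replicate is given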
T cruzi inh: T. cruzi replication inhibition; T. cruzi beta-gal in NIH3T3, luminescence, 90 h; actives 1.4% (n = 300,000); inhibition, % (no concentration beside the values);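 active means mean inhibition across valid replicates above about 55%, limit read from the data; inconclusive means mean below that limit but half or more replicates reach it; inactive means mean below it, under half of replicates reach it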;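 further: signal also drops with host cell toxicity which is not excluded here; 0% = plate median of DMSO wells and 100% = zero luminescence signal; higher percent means less beta-gal luminescence so fewer parasites; stock transfer was 50 nL into about 50 µL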
UCH37 inh: blocks the human deubiquitinase UCH37; Q9Y5K5; actives 0.33% (n = 330,000); purified proteasome/UCH37, Ub-AMC cleavage fluorescence; inhibition, % (no concentration beside the values); AID 588478;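 active means mean of two replicates above 20%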;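 further: 0% = compound-free wells with enzyme and 100% = wells lacking proteasome; stock transfer was 100 nL into about 20 µL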
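Signal – fluorescence, ex 355 nm, em 460 nm · System – Proteasome-bound UCH37 · Input – 0.15 nM proteasome as dispensed · Timing – 30 min preincubation with enzyme, 25 min cleavage at room temperature · Read-out basis – percent inhibition of cleavage signal versus uninhibited and no-proteasome wells · Medium – Tris-HCl pH 7.4 with ATP-MgCl2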
B2AR ag: activates human beta-2 adrenergic receptor causing internalization | P07550 | Am2.2-beta2AR cells, FAP receptor internalization, flow cytometry; reference of the scale not given here | response, % (test concentration not listed) | actives 0.43% (n = 340,000);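 active means response above a set limit, near 3 SD of response in nonfluorescent compounds, cut at about 42% in these data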;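 further: stock transfer was 100 nL into about 11 µL; a reference agonist was the positive control; negative values mostly stem from fluorescent compounds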
An asterisk follows results filed as active; i = inactive; u = inconclusive; x = no result given.

SMILES | A1 inh | LANA-H2B inh | RanGTP-Imp inh | Calb FLC | Beta apoptosis | T cruzi inh | UCH37 inh | B2AR ag
Cc1nn(Cc2ccccc2)c(Cl)c1/C=C/C(=O)OCC(=O)N(C)C1CCS(=O)(=O)C1 (configuration not stated) | -0.6 | 3.4 | 2.5 | -2 | 3 | -2 | -0.3 | -2
O=C(COC(=O)/C=C/c1ccco1)Nc1ncc(Cl)cc1Cl | -0.5 | -0.6 | 0.4 | -2 | -7 | 11 | -3.9 | 2
CCCCCNCc1cccc(Br)c1 | 0.0 | 4.5 | -1.5 | -6 | 1 | 1 | -0.3 | 0
CCCCCCCCc1nc(SCC(C)=O)n[nH]1 | 0.4 | -7.4 | -2.5 | -26 | 0 | -11 | 0.9 | 1
CC(=O)c1cn(-c2ccc([N+](=O)[O-])cc2)c(=O)n(C)c1=O | 2.3 | -1.4 | 12 | 18 | x | x | 2.9 | -6
COc1ccccc1C(=O)Nc1ccc2c(c1)nc(CCNC(C)=O)n2C | -0.1 | -1.7 | -1.0 | -12 | -2 | -9 | 2.4 | -14
Nc1nc(COC(=O)c2ccc3c(c2)OCCO3)nc(Nc2ccccc2)n1 | 0.0 | x | x | x | -2 | x | 2.3 | 1
CC(=O)NCC(=O)NC(Cc1ccccc1)C(N)=O (configuration not stated) | -0.3 | -1.3 | -5.1 | -7 | -23 | 6 | 1.3 | 2
Oc1ccccc1C1=NN(c2ccccc2)C(c2ccc(F)cc2)C1 (configuration not stated) | 1.8 | 3.0 | -2.7 | 5 | -3 | 30 | -320 | 10
O=S(=O)(c1cccc(S(=O)(=O)N2CCC(n3nnc4ccccc43)CC2)c1)N1CCCCC1 | -0.6 | 5.3 | -2.5 | 10 | -2 | 32 | 2.9 | -27
CCNS(=O)(=O)c1ccc(NC(=O)c2cccnc2)cc1 | 0.0 | -4.0 | x | 100* | -9 | -16 | 1.6 | -8
COCC1CCCN(Cc2nc(C(c3ccccc3)c3ccccc3)no2)C1 (configuration not stated) | -0.1 | 0.4 | -2.4 | 1 | -1 | 4 | 1.2 | -2
COC(=O)c1ccc(C)c(NC(=O)Cn2c(C)csc2=O)c1 | 1.1 | -8.6 | x | x | -3 | x | 1.1 | 4
Cc1ccc(C(=O)Nn2cnnc2)cc1 | 0.3 | -1.4 | -0.2 | -7 | -1 | 2 | 1.3 | 2
COc1ccc(OC)c(S(=O)(=O)N2CCN(c3c(C)cccc3C)CC2)c1 | 0.6 | -0.5 | 4.3 | -15 | -4 | 36 | 2.6 | 1

Molecules from the list above that contain a halogen:
SMILES | A1 inh | LANA-H2B inh | RanGTP-Imp inh | Calb FLC | Beta apoptosis | T cruzi inh | UCH37 inh | B2AR ag
Cc1nn(Cc2ccccc2)c(Cl)c1/C=C/C(=O)OCC(=O)N(C)C1CCS(=O)(=O)C1 (configuration not stated) | -0.6 | 3.4 | 2.5 | -2 | 3 | -2 | -0.3 | -2
O=C(COC(=O)/C=C/c1ccco1)Nc1ncc(Cl)cc1Cl | -0.5 | -0.6 | 0.4 | -2 | -7 | 11 | -3.9 | 2
CCCCCNCc1cccc(Br)c1 | 0.0 | 4.5 | -1.5 | -6 | 1 | 1 | -0.3 | 0
Oc1ccccc1C1=NN(c2ccccc2)C(c2ccc(F)cc2)C1 (configuration not stated) | 1.8 | 3.0 | -2.7 | 5 | -3 | 30 | -320 | 10

Single records (already shown):
CCCCCCCCc1nc(SCC(C)=O)n[nH]1 is listed as A1 inh: 0.4; LANA-H2B inh: -7.4; RanGTP-Imp inh: -2.5; Calb FLC: -26; Beta apoptosis: 0; T cruzi inh: -11; UCH37 inh: 0.9; B2AR ag: 1
CCCCCNCc1cccc(Br)c1 is listed as A1 inh: 0.0; LANA-H2B inh: 4.5; RanGTP-Imp inh: -1.5; Calb FLC: -6; Beta apoptosis: 1; T cruzi inh: 1; UCH37 inh: -0.3; B2AR ag: 0

(next part)
SMILES | A1 inh | LANA-H2B inh | RanGTP-Imp inh | Calb FLC | Beta apoptosis | T cruzi inh | UCH37 inh | B2AR ag
CCc1ccc(/C=c2\s/c(=C\C(=O)C(C)(C)C)[nH]c2=O)cc1 | 0.2 | -4.4 | 0.8 | -7 | 20 | 0 | x | -2
O=C(OC(C(=O)Nc1ccc([N+](=O)[O-])cc1Br)c1ccccc1)c1ccccc1 (configuration not stated) | 1.5 | -3.6 | -2.2 | 0 | 2 | 29 | 1.4 | -6
Cc1c(C)c2ccc(OCC(=O)Nc3ccccc3C(N)=O)cc2oc1=O | 0.0 | 11 | 3.2 | 2 | -7 | -4 | -9.6 | -14
C=CCN(C(=O)C1CSC2(C)CCC(=O)N12)c1nc(-c2ccccc2)cs1 (configuration not stated) | 0.5 | x | -1.8 | 1 | 4 | 15 | 3.2 | 11
CCOC(=O)c1cnc2c(ccc3ccccc32)c1N | -2.9 | 2.6 | 3.4 | 0 | 34 | -7 | -22 | -7
COC(=O)c1cccc(COC(=O)c2cccnc2SC)c1 | -1.0 | 4.8 | 4.6 | -2 | -6 | -7 | 0.2 | 6
CC(C)c1ccc(NC(=O)CSc2n[nH]c(=O)n2Cc2ccco2)cc1 | 1.0 | 5.3 | 0.7 | 6 | 0 | -5 | 3.6 | -4
CC(=O)OC1c2ccccc2C(=O)N1Cc1ccccc1Cl (configuration not stated) | 0.3 | -1.5 | 2.3 | 2 | -4 | 4 | 1.2 | 9
O=C(N1CCOCC1)N1CCN(S(=O)(=O)c2cccc([N+](=O)[O-])c2)CC1 | 0.9 | 1.1 | 4.2 | 11 | -6 | -10 | 0.7 | -2
CC1CCC(NC(=O)CN(C)CC(=O)Nc2ccc(F)cc2)CC1 (configuration not stated) | 1.3 | 0.6 | x | x | -2 | x | 5.2 | -2
COc1ccc(C(=O)OC(C)CN2CCN(C)CC2)cc1 (configuration not stated) | 0.9 | 1.5 | 0.6 | 16 | x | 45 | 0.8 | -4
COCCCNC(=O)c1cc(C)nc2ccc(F)cc12 | 1.0 | -2.9 | -1.1 | -4 | -3 | -12 | 2.7 | -8
CN1C(=O)CC(N2CCN(CCN=CC3=C(O)CC(C)(C)CC3=O)CC2)C1=O (configuration not stated) | -0.5 | 1.8 | u | 7 | -8 | -7 | 2.2 | -19
COc1ccccc1NC(=O)Nc1cc(C(C)C)ccc1C | x | x | 3.8 | -3 | x | 14 | 7.3 | -2
COc1cc(OC)cc(C(=O)Nc2ccc(C(=O)Nc3ccccc3OC)cc2)c1 | -0.5 | -2.9 | x | x | -3 | x | -3.5 | 2
CCOCC(=O)Nc1cccc(Br)c1 | -0.3 | -2.0 | 4.1 | 7 | -4 | 6 | x | -4
CCc1cccc(CN2CCC(CNC(=O)Nc3ccc(Cl)cc3)CC2)c1 | 0.0 | -2.8 | 1.6 | 2 | 5 | 57* | 1.5 | 4
CCOC(=O)Nc1ccc2c(C)cc(=O)oc2c1 | -5.5 | -1.3 | -1.4 | 3 | 8 | -5 | i | -9
O=C(Cc1ccccc1)NCCN1CCCC1 | 1.4 | -2.9 | -0.7 | -2 | -1 | 2 | 0.4 | -5
CNS(=O)(=O)c1cccc(C(=O)NCC(c2cccs2)N(C)C)c1 (configuration not stated) | 0.1 | 1.7 | -2.0 | 1 | -4 | 0 | -0.4 | -3
C=CCn1c(CNC(=O)CCC)nc2ccccc21 | 0.0 | 10 | 0.8 | -10 | x | 10 | 2.3 | -5
CC1=NN(C(C#N)c2ccccc2C)C(C)(C)C1 (configuration not stated) | 0.5 | 9.1 | 1.5 | 18 | -10 | -1 | -0.1 | 5
Cc1cc(NC(=O)CN(C)CC(=O)Nc2ccc(F)c(F)c2F)no1 | -0.1 | 2.5 | x | x | 6 | x | 1.7 | -12
CSCC[C@H](NC(=O)c1ccco1)c1nnc2ccccn12 | -2.1 | 0.1 | -1.1 | 30 | -2 | -14 | 2.6 | -7
CCCCn1nnnc1NCc1ccc(OC)c(OC)c1OC | 0.1 | -3.9 | 0.0 | -13 | 6 | -13 | 0.5 | 0
COc1ccc(/C=C/C(O)=C2/C(=O)NC3(C)CC2c2ccccc2O3)c(OC)c1OC (configuration not stated) | 0.0 | -2.4 | 1.2 | -7 | -5 | 36 | -32 | 9
CCC(C(=O)NCC1CCCO1)N(Cc1ccccc1)C(=O)CNS(=O)(=O)c1ccccc1 (configuration not stated) | 0.1 | 6.0 | 0.4 | 4 | -1 | 15 | 3.6 | 9
Cc1ccc2[nH]cc(CCNC(=O)C3CCCO3)c2c1 (configuration not stated) | -0.1 | 1.4 | -3.7 | 0 | -5 | -16 | -1.5 | -4
COc1ccc(C(=O)N2CCN=C2SCc2cccnc2)cc1OC | 0.4 | -4.1 | -2.8 | -1 | -3 | -23 | 3.9 | 7
Cc1ccc(N=C2NC(=O)CS2)c(C)c1 | -0.2 | -0.4 | u | -6 | -7 | -12 | -6.2 | 3
Cc1ccc(NS(=O)(=O)c2c(C)[nH]c(C)c2C(=O)N2CCCC2)cc1 | 1.0 | 0.6 | 0.6 | 1 | -3 | -13 | -0.3 | 2
O=C(Nc1cccc2cccnc12)c1ccccc1Cl | 0.0 | 3.2 | 1.6 | 30 | -10 | -11 | 1.1 | -2
Cn1c(=O)c2c(nc(N/N=C/c3ccc(OC(=O)c4ccco4)cc3)n2Cc2ccccc2)n(C)c1=O | -0.7 | -1.7 | 5.5 | -2 | 20 | 11 | x | 12
CCOC(=O)C(NC(=O)Nc1ccc(F)cc1F)(Oc1ccc(F)cc1)C(F)(F)F (configuration not stated) | 0.9 | -0.9 | 0.2 | -3 | 2 | -11 | 2.0 | -5
CC(=O)c1ccc(NC(=O)C2CCCN(S(=O)(=O)c3ccc(-n4cnnn4)cc3)C2)cc1 (configuration not stated) | 0.0 | -5.0 | -1.4 | 3 | 2 | -3 | -1.2 | -11
Cc1cc(C)c(NC(=O)C2CCCCN2C)c(C)c1 (configuration not stated) | 0.3 | -2.6 | -0.4 | -6 | 2 | -4 | 4.1 | -3
COc1ccc(O[C@H]2C=C[C@@H](c3ccccc3)O[C@@H]2COC(=O)CC/C(C)=N/OC[C@@H](O)[C@H]2O[C@@H]3OC(C)(C)O[C@@H]3[C@H]2O)cc1 | -0.7 | 0.9 | -4.0 | 13 | -5 | 5 | x | x
CCOC(=O)c1nn(-c2cccc(C)c2)c2nc(-c3ccccc3)c(C#N)c(=O)n12 | -0.2 | 3.7 | 0.2 | -28 | 8 | 11 | -17 | 4
CC1CCc2c(sc3nc(SCC(=O)O)n(-c4ccccc4)c(=O)c23)C1 (configuration not stated) | -0.3 | 0.5 | -2.4 | 3 | 2 | 11 | 4.0 | -12
COc1ccc(-c2nnc(-c3ccc(N)cc3)o2)cc1 | -4.9 | -3.5 | -7.7 | -9 | -1 | -2 | -106 | 5
Cc1cc(NC(=O)c2cc(-c3ccccc3Cl)nc3ccccc23)no1 | 0.3 | 4.3 | 2.4 | 15 | 15 | 28 | 2.5 | -7
CCn1nc(C)cc1-c1nnc(SCC(=O)Nc2ccccc2)n1CCCOC | -0.3 | 2.9 | 2.4 | 3 | -5 | 7 | 2.9 | 1
O=C(CSc1nnc(-c2cccnc2)n1Cc1ccco1)c1ccc2ccccc2c1 | -0.4 | 6.8 | 9.7 | 8 | -9 | -18 | 0.6 | -10
O=C(O)c1ccc2c(c1)ncn2C1CCCC1 | -0.2 | 0.0 | 1.4 | 0 | 2 | -3 | 2.6 | 12
